Screening data: PubChem BioAssay, National Center for Advancing Translational Sciences (NCATS)
miR-21 reporter – raises the signal of a miR-21 reporter; Potency, µM (series often up to 38.3 µM), without a hit: at the highest dose reporter change, positive = more light; 340,000 tested, under 10 active; AID 2288; HeLa miR-21 FLuc reporter, luciferase, 48 h; active = well fitted rising curve with a large enough effect; inconclusive = small, poorly fitted or top-dose-only effect; inactive = no such curve, though single readings can be large or run the other way;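 further: % of control where 0% means no effect; miR-21 action dims this reporter so a rising signal means less miR-21 action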
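Using DMEM plus 10% FBS, HeLa miR-21-FLuc cells are incubated with test compounds (final up to about 40uM) for 48 hours; firefly luciferase signal is then imaged following reagent-mediated lysis.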
An asterisk follows results filed as active; ? = inconclusive; [ ] = dose if it differs, or a comment.

SMILES	miR-21 reporter
CC(C)NC(=O)C1CCN(C(=O)c2cc3sccc3n2Cc2ccc(Cl)cc2)CC1	?
Cc1cccc(C)c1OCCn1c(CCNC(=O)C2CCCCC2)nc2ccccc21	17%
COc1cc(Cl)c(NC(=O)CCS(=O)(=O)c2ccc3c(c2)NC(=O)CO3)c(OC)c1	7%
COc1cc(CN2CCc3nc(Nc4ccc5c(c4)OCCO5)ncc3C2)cc(OC)c1OC	-14%
CCc1ccc(C(=O)c2cn(CC(=O)Nc3ccc(F)c(F)c3)c3cc(OC)c(OC)cc3c2=O)cc1	?
CC1=C(C#N)C(NC(=O)c2ccccc2)(C(F)(F)F)C(=O)N1 (stereo not drawn)	-3%
CCc1ccc(CN(Cc2ccco2)C(=O)c2ccccc2Cl)cc1	23%
Cc1ccc2nc(NC(=O)c3cc(=O)c4cc(C)c(C)cc4o3)sc2c1	1%
CCOC(=O)CSc1nc2ccc(NC(=O)COc3ccccc3C)cc2s1	-15%
Fc1ccc(-c2cc3ncc4c(n3n2)-c2cc(Cl)ccc2OC4)cc1	-13%
CCc1ccc(CNC(=O)c2ccc(CS(=O)c3ccc(Br)cc3)o2)cc1 (stereo not drawn)	14%
CN(C)c1ccc(CNC(=O)c2cnc3sc(N4CCOCC4)nn3c2=O)cc1	-2%
O=C(NCc1ccc2c(c1)OCO2)c1ccc2c(c1)N(Cc1cccc(Cl)c1)C(=O)c1ccccc1S2=O (stereo not drawn)	-1%
Cc1ccc(C)c(CN2C(=O)c3ccccc3Sc3ccc(C(=O)NC4CCCC4)cc32)c1	-4%
COc1ccccc1-c1c(C)nn2c(C(F)(F)F)cc(-c3ccccc3)nc12	-6%
CC(C)c1ccc(NC(=O)CN(C)S(=O)(=O)c2ccc3c(c2)n(C)c(=O)c(=O)n3C)cc1	-15%
COc1ccc(CNC(=O)c2cc(-c3ccc(Br)s3)nc3ccccc23)cc1	-1%
N#C/C(=C\c1ccc(-c2ccc(C(=O)O)cc2)o1)C(=O)Nc1ccccc1C(=O)O	1%
Cc1cccc(-n2c3nc(=O)[nH]c(=O)c-3cc3c(Cl)cccc32)c1C	-2%
Cc1ccc(C)c(NC(=O)c2cnn(-c3ccc(F)cc3F)c2C2CCNCC2)c1	8%
COc1ccc(C(=O)N2CCc3cc(OC)c(OC)cc3C2COc2ccccc2OC)cc1 (stereo not drawn)	?
COc1ccc2oc(=O)c(-c3nc(-c4cccs4)no3)cc2c1	-18%
COCCCNC(=O)CSc1nc2cc3c(cc2c(=O)n1CCCCCC(=O)NCc1ccc(OC)cc1)OCO3	6%
Cc1cccc(N2CCN(c3ccc4cc(S(=O)(=O)N5CCC(C)CC5)ccc4n3)CC2)c1C	-2%
CCOc1ccc(S(=O)(=O)N(CC(=O)NCc2ccccc2OC)c2ccccc2)cc1	28%
COc1ccc(CNc2cc(C)cc(C)c2)cc1OC	0%
Cc1ccc(-n2nc(C)c3c(C)c(CCC(=O)NCc4ccccc4Cl)c(C)nc32)cc1C	0%
CCOc1ccc(NC(=O)Cn2c(=O)n(CCCCC(=O)NCCc3ccc(Cl)cc3)c(=O)c3ccccc32)cc1	-1%
COc1ccccc1Nc1nc(-c2ccc(F)cc2)c2c(n1)-c1ccccc1OC2	-10%
Cc1cccc(C(=O)NCCc2nc3ccccc3n2Cc2ccccc2Cl)c1	-4%
CCOc1ccccc1NC(=O)Cn1c(=O)nc(-c2ccccc2F)c2cc(Cl)ccc21	0%
Clc1cccc(N2CCN(c3ncnc4c3nc3n4CCCC3)CC2)c1	2%
CCOc1ccc(OCC)c(-n2cnnn2)c1	1%
CCCOc1ccc(C2=NC(c3ccncc3)=Nc3ccc(C)cc3N2)cc1	-1%
Cc1cc(NC(=O)CN(c2cccc(C)c2C)S(=O)(=O)c2ccccc2)ccc1Br	?
COc1cccc(-c2nc3c(c(C)nn3-c3ccccc3)c3cc(OC)c(OC)cc23)c1	-1%
O=C(CC(c1cccs1)N1Cc2ccccc2C1=O)Nc1ccc(F)cc1F (stereo not drawn)	16%
CCOC(=O)c1c(C)[nH]c(CCC(=O)NCCCN2CCN(c3ccc(F)cc3)CC2)c1C	11%
COc1ccc(OC)c(-c2noc(N3CCN(c4cc(Cl)ccc4C)CC3)n2)c1	12%
Cc1ccc(Cl)cc1N1CCN(C(=O)c2ccc(NC(=O)c3nsc4ccccc34)cc2)CC1	-6%
Cc1ccccc1NS(=O)(=O)c1ccc2[nH]cc(C(=O)NC3CCCCC3)c(=O)c2c1	14%
Cc1csc2nc(-c3cccc(NC(=O)c4ccc(S(N)(=O)=O)cc4)c3)cn12	1%
Cc1oc(-c2ccccc2)nc1CNS(=O)(=O)c1ccc(Cl)cc1	5%
Cc1ccc(CN2COc3ccc4c(-c5ccccc5)cc(=O)oc4c3C2)cc1	-1%
CCCNc1ncnc2c1cnn2-c1ccc(OC)cc1	-31%
Cc1ccc(C)c(NC(=O)CSc2nc(-c3ccccc3)c(C#N)c(=O)[nH]2)c1	0%
CCn1cc2nc(SCc3cc(C)ccc3C)n(Cc3ccc(C)cc3)c(=O)c2n1	4%
CCN1c2ccccc2-c2nc(SCC(=O)Nc3ccc(C)c(Cl)c3)ncc2S1(=O)=O	18%
CN(C(=O)CSc1nnc(NC(=O)Nc2ccccc2)s1)c1ccccc1	10%
Cc1ccccc1OCC(=O)Nc1nnc(SCc2cc(=O)n3cccc(C)c3n2)s1	-2%
CC(=O)N1c2c(cc(Br)cc2S(=O)(=O)N2CCN(c3cccc(Cl)c3)CC2)CC1C (stereo not drawn)	21%
CCn1cc(C(=O)N2CCN(c3ccc(OC)cc3)CC2)c(=O)c2cc(S(=O)(=O)N(C)C3CCCCC3)ccc21	-13%
O=C(CSc1nc(=O)[nH]c2c1CCCC2)Nc1cc(C(F)(F)F)ccc1Cl	3%
O=C(CSc1nnc(-c2ccccc2Br)n1-c1ccccc1)c1ccc(F)cc1	24%
COc1ccc(N(CC(C)C)S(=O)(=O)c2nnc(NC(=O)c3cccs3)s2)cc1	24%
CCOc1ccc(-n2c(Cc3ccccc3)nnc2SCc2nc(-c3ccccc3C)no2)cc1	0%
COc1ccc(-c2ccc(=O)n(CC(=O)Nc3ccc(N(C)C)cc3)n2)cc1	-11%
COc1ccc(NC(=O)C2=CC(c3ccc4c(c3)OCO4)=NS(=O)(=O)N2C)cc1OC	-1%
COc1ccc(N(CC(=O)NCc2ccccc2Cl)S(=O)(=O)c2c(C)[nH]c(=O)[nH]c2=O)cc1	-2%
Cc1nc2sc(C(=O)NCc3ccc(Cl)cc3)c(NC(=O)c3ccccc3)c2c(C)c1C	-1%

Four of the compounds above, in markdown.
| Compound | miR-21 reporter |
| --- | --- |
| O=C(CSc1nc(=O)[nH]c2c1CCCC2)Nc1cc(C(F)(F)F)ccc1Cl | 3% |
| O=C(CSc1nnc(-c2ccccc2Br)n1-c1ccccc1)c1ccc(F)cc1 | 24% |
| COc1ccc(N(CC(C)C)S(=O)(=O)c2nnc(NC(=O)c3cccs3)s2)cc1 | 24% |
| CCOc1ccc(-n2c(Cc3ccccc3)nnc2SCc2nc(-c3ccccc3C)no2)cc1 | 0% |

Other structures follow:
SMILES	miR-21 reporter
Cc1ccc(S(=O)(=O)N2CCN(C(=O)c3cc(-c4ccc(Br)cc4)n[nH]3)CC2)c(C)c1	6%
COc1cccc(OC)c1C(=O)NCCc1csc(-c2ccc(Cl)cc2)n1	0%
CCc1cccc(NC(=O)C(CC)n2nc(C)c3sc4ccccc4c3c2=O)c1 (stereo not drawn)	-37%
CC(=O)Nc1nnc(SCc2cc(=O)c3cc(C)ccc3[nH]2)s1	4%
Cc1ccc(C(=O)Nc2nnc(S(=O)(=O)N3c4ccccc4CC3C)s2)cc1 (stereo not drawn)	-1%
CC1CCN(C(=O)c2c(NC(=O)c3ccccc3F)sc3c2CCC(C(C)(C)C)C3)CC1 (stereo not drawn)	-5%
COc1ccc2cc(C(=O)NCc3ccc4c(c3)CCN4C(=O)c3ccc(C)cc3)[nH]c2c1	20%
Cc1cc2oc(C(=O)Nc3ccc(S(=O)(=O)Nc4onc(C)c4C)cc3)cc(=O)c2cc1C	-1%
O=C(CCn1c(=O)c2cccn2c2cccnc21)N1CCN(c2ccccc2F)CC1	3%
CCOC(=O)c1cccc(NC(=O)COc2ccc3c(C)cc(=O)oc3c2)c1	-1%
CCn1c(=N)c(C(=O)NC2CCCC2)cc2c(=O)n3cc(C)ccc3nc21	-3%
CCc1ccccc1NC(=O)Cn1c(=O)n(CCCS(=O)(=O)C2CCCCC2)c(=O)c2ccccc21	-2%
COc1ccc(-c2nc3scc(CCNC(=O)Cc4ccc(F)cc4)n3n2)cc1	5%
Cc1cc(C)c2oc(C(=O)Nc3sc4c(c3C(=O)NCc3ccco3)CCC4)cc(=O)c2c1	-1%
CCOC(=O)C1CCC(CN(Cc2c(Cl)cccc2Cl)S(=O)(=O)c2ccc(Cl)cc2)CC1 (stereo not drawn)	1%
CCN(c1ccccc1C)S(=O)(=O)c1nnc(NC(=O)c2ccc(OC)c(OC)c2)s1	1%
CCOc1ccc(N(CC)S(=O)(=O)N2CCCC(C(=O)NCc3ccc(Cl)cc3)C2)cc1 (stereo not drawn)	27%
CC1(C)O[C@H]2[C@@H](O1)[C@@H](C(=O)Nc1cc(F)ccc1F)O[C@@H]1OC(C)(C)O[C@@H]12	-20%
CCc1ccc(S(=O)(=O)c2cn(CC)c3cc(N4CCCCC4)c(F)cc3c2=O)cc1	-5%
CCCN(CCC)C(=O)CSc1c2c(nc3ccc(Cl)cc13)CCCC2	?

Another view of 2 compounds above.
SMILES,miR-21 reporter
Cc1cc2oc(C(=O)Nc3ccc(S(=O)(=O)Nc4onc(C)c4C)cc3)cc(=O)c2cc1C,-1%
COc1ccc2cc(C(=O)NCc3ccc4c(c3)CCN4C(=O)c3ccc(C)cc3)[nH]c2c1,20%

An excerpt of these results, as labelled records:
Cc1ccc(S(=O)(=O)N2CCN(C(=O)c3cc(-c4ccc(Br)cc4)n[nH]3)CC2)c(C)c1
  miR-21 reporter = 6%

CCOC(=O)c1cccc(NC(=O)COc2ccc3c(C)cc(=O)oc3c2)c1
  miR-21 reporter = -1%

COc1ccc(-c2nc3scc(CCNC(=O)Cc4ccc(F)cc4)n3n2)cc1
  miR-21 reporter = 5%

CCc1ccccc1NC(=O)Cn1c(=O)n(CCCS(=O)(=O)C2CCCCC2)c(=O)c2ccccc21
  miR-21 reporter = -2%

The list goes on.
SMILES	miR-21 reporter
CCC1CN(C(=O)Nc2cc(Cl)c(OC)cc2OC)c2ccccc2O1 (stereo not drawn)	-51%
O=C(C1CCCN(S(=O)(=O)c2cccc3nsnc23)C1)N1CCN(c2ccccc2Cl)CC1 (stereo not drawn)	?
N#Cc1ccccc1NC(=O)C(=O)NCC(c1ccc2c(c1)OCO2)N1CCOCC1 (stereo not drawn)	-2%
COc1cccc(N2CCN(C(=O)c3cc4c(=O)n(Cc5cccnc5)ccc4nc3C)CC2)c1	-4%
COc1ccc(C(=O)Nc2nnc(S(=O)(=O)N3CCN(c4ccc(F)cc4)CC3)s2)cc1	-3%
O=C(NCCc1ccccc1)C(=O)NCC(c1ccco1)S(=O)(=O)c1ccccc1 (stereo not drawn)	5%
CCc1ccccc1NC(=O)CN1CCCN(Cc2cc(C)ccc2C)S1(=O)=O	26%
CCN1CCN(c2oc(/C=C/c3ccc(OC)c(OC)c3)nc2C#N)CC1	-18%
COc1ccc(Cl)cc1NC(=O)N1CC(=O)Nc2sc3c(c2C1c1ccccc1)CCCC3 (stereo not drawn)	0%
CCc1ccc2oc(-c3cc(NC(=O)c4cccs4)ccc3Cl)nc2c1	15%
Cc1cccc(N2CCN(c3nc4ccc(C(=O)c5ccccc5)cc4n4cnnc34)CC2C)c1 (stereo not drawn)	1%
COC(=O)c1sc(NC(=O)/C=C/c2ccc(OC)c(OC)c2)c(C(=O)OC)c1C	-3%
COc1cc(OC)cc(C(=O)Nc2cc3c(cc2N2CCCCC2)n(C)c(=O)n3C)c1	-1%
Cc1ccc(S(=O)(=O)N2CCN(Cc3ccccc3Cl)CC2)cc1	-2%
CCOc1ccc(NC(=O)Cn2c(=O)n(Cc3ccco3)c(=O)c3oc4ccccc4c32)cc1	-3%
COc1ccc2c(c1)c1c(c(=O)n(-c3cccc(C)c3)c(=O)n1CC(=O)NCc1ccc(C)cc1)n2C	1%
CC(C)c1nc2ccc(C(=O)NCCCN3CCN(c4cccc(Cl)c4)CC3)cc2o1	17%
Cc1ccc(OCC(=O)Nc2nonc2-c2ccc(Br)cc2)cc1C	-1%
Cc1cc2c(cc1S(=O)(=O)Nc1cccc(Cl)c1C)OCCN2C	-6%
Cc1ccc(NC(=O)Cn2c(=O)nc(-c3ccccc3F)c3cc(Cl)ccc32)c(Br)c1	-7%
N#Cc1ccc2c(c1)C[C@]1(c3ccsc3)OC3=C(C(=O)OC4(CCCCC4)C3)C2O1	-7%[7.66 µM]
CCOc1ccc2c(c1)c(=O)c(C(=O)c1ccc3c(c1)OCO3)cn2Cc1cccc(F)c1	8%
Cc1c(CCC(=O)NCCc2ccccc2)c(=O)oc2c(C)c(O)ccc12	-1%
Cc1ccc2oc(C(=O)Nc3sc4c(c3C(=O)NCc3cccnc3)CCCC4)cc(=O)c2c1	-1%
CSc1ccc(C2c3c(-c4ccccc4O)n[nH]c3C(=O)N2Cc2ccncc2)cc1 (stereo not drawn)	5%
COc1ccc(-c2nc(SCC(=O)Nc3ccc4c(c3)OCCO4)c(-c3ccc(F)cc3)[nH]2)cc1	-45%
COC(=O)c1sc2cccc(F)c2c1S(=O)(=O)N1CCN(c2cccc(OC)c2)CC1	11%
CCNC(=O)CC1C(=O)N(c2cccc(OC)c2)C(=O)N1Cc1ccc(OC)c(OC)c1 (stereo not drawn)	-7%
CCCCCN1C(C(=O)c2ccccc2)=C(NC(=O)c2ccccc2Cl)c2ccccc2S1(=O)=O	-2%
CCc1nc(-c2cc(S(=O)(=O)N3CCN(c4ccccc4)CC3)ccc2OC)no1	4%

Not all compounds are listed; rates above refer to the full screens.
